Screening data deposited in PubChem BioAssay by Johns Hopkins Ion Channel Center.
KCNQ2 pot – KCNQ2 (rat) channel potentiation; O88943; CHO-K1 KCNQ2, FluxOR thallium flux fluorescence; hits give high values; B-score at 10 µM; 310,000 compounds, 0.54% hits; AID 2239;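 active means fluorescence ratio B-score at least 3 SD of library B-scores, with initial fluorescence B-score within 3 SD, cut at about 5.3 in these data; same plate scores as AID 2156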;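 further: B-score of peak minus minimum over baseline fluorescence ratio after K+ and Tl+ stimulus; positive B-score means potentiation of KCNQ2 with more thallium influx and brighter signal; only the inactives scoring about 0 or higher are listed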
Target sequence (O88943 whole entry, looked up): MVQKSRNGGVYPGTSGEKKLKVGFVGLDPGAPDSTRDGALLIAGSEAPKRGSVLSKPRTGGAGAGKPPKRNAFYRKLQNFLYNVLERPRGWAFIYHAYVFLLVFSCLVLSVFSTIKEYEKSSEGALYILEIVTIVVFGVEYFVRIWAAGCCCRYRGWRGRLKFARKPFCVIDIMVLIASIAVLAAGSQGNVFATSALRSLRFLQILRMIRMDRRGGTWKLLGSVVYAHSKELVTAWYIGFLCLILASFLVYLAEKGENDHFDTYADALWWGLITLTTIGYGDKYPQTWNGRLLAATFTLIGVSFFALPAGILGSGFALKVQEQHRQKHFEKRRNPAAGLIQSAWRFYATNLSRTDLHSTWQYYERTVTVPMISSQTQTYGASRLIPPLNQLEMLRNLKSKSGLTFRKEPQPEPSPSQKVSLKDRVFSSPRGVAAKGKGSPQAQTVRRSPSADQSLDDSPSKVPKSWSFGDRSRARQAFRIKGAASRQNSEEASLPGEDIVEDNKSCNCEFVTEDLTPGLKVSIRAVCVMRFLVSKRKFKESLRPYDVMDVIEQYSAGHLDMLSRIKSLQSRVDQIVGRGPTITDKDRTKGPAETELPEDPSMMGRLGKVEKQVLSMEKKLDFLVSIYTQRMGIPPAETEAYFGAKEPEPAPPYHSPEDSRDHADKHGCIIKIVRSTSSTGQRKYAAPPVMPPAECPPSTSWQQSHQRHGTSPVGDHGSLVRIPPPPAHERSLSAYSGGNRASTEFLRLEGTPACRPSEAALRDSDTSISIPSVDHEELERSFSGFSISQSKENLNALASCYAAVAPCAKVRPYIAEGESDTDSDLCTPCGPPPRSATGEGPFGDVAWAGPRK
KCNQ2 pot baseline – recorded beside KCNQ2 pot, whose call it bears; B-score; compound at 10 µM; measured here: initial fluorescence intensity artifact check;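 brightness before thallium and not channel activity; 0 = typical well and far values either way flag optical interference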
Starred values were filed as active, the others as inactive. Not all compounds are listed. The share of hits here may be higher or lower than overall.

SMILES	KCNQ2 pot	KCNQ2 pot baseline
CC(NC(N)=O)C(=O)OCC(=O)c1ccc(-c2ccccc2)cc1 (stereo not given)	0.3	0.29
CCc1ccc(C2(O)CC(C(F)(F)F)=NN2C(=O)Cc2ccc([N+](=O)[O-])cc2)cc1 (stereo not given)	0.38	-0.35
Cc1nn(-c2ccccc2)c2c1C(=O)N(c1ccccc1)C(=O)C(C)(C)C2	0.71	0.41
CC(=O)c1cccc(CN2CCN(Cc3ccccc3)C(CCO)C2)c1 (stereo not given)	0.81	0.62
COc1ccccc1/C=C/C(=O)NCC(=O)N/N=C/c1cccnc1	0.58	0.6
CC(C)C(NC(=O)c1ccc(C(C)(C)C)cc1)C(=O)NCCc1ccccn1 (stereo not given)	0.21	-1.1
COc1cccc(NC(=O)N2CCCC2C(=O)NC2CC2)c1 (stereo not given)	1.9	3
CCOC(=O)c1ccc(Oc2ccc(C(F)(F)F)cn2)cc1	0.11	-0.2
CCN(CC)C(=O)CSc1nc(O)c(Cc2ccc(OC)cc2)c(=O)[nH]1	1.2	-0.69
CCS(=O)(=O)c1nc(S(=O)(=O)c2ccc(Cl)cc2)c(NCc2ccccn2)s1	0.89	-0.2
CCCc1nc(SCC(=O)NCC2CCCO2)c2c(=O)n(C)c(=O)n(C)c2n1 (stereo not given)	1.9	-0.21
O=C(Cn1nc(Cc2cccnc2)c2ccccc2c1=O)Nc1cccnc1Cl	0.54	0.08
COc1ccc(C(C(N)=O)c2ncc(C(F)(F)F)cc2Cl)cc1 (stereo not given)	0.47	-1.2
COc1ccc(NC2=NC(=S)N(c3ccccc3C)C23CCCCC3)cc1	1.8	-0.45
CCc1ccccc1NC(=O)CSc1ncn[nH]1	1.1	-0.93
O=C(N/N=C/c1cccs1)c1n[nH]c2c1CCC2	2.4	-0.05
CCOc1ccc(CC(=O)Nc2nccs2)cc1	0.03	-0.1
CCNC(=O)CC1C(=O)N(c2ccc(C)cc2)C(=O)N1CCOC (stereo not given)	0.89	-0.22
Nc1nc2nc(-c3ccc(OCc4ccccc4)cc3)cc(C(F)(F)F)n2n1	0.07	1.4
COc1ccc(C2N=C(c3ccccc3)C(C)(C)N2O)cc1OC (stereo not given)	1.3	-0.23
O=C(CSc1n[nH]c(-c2ccncc2)n1)NC1CCS(=O)(=O)C1 (stereo not given)	1.1	-2
COc1ccc(/C=N/Nc2cc(C)nc(N)n2)cc1	1.9	-1.5
CC(C)[C@H](NC(=O)N1CCn2c1nc1ccccc12)C(=O)NCc1ccco1	0.03	0.03
CC1CN(C(=O)C2CCCCC2)C(C)CN1C(=O)C1CCCCC1 (stereo not given)	0.38	0.06
OC(CN1CCC(Cc2ccccc2)CC1)C(F)(F)F (stereo not given)	0.29	-0.28
CC(=O)Nc1ccc(NC(=O)C2CCCN(c3nnc(-n4cccc4)s3)C2)cc1 (stereo not given)	1.6	-2
COc1ccc(CCNC(=O)c2ccc3c(c2)SC2=NS(=O)(=O)CCN23)cc1	0.84	0.55
CC1(C)CC2CC(C)(CN2S(=O)(=O)c2ccc(C(=O)Nc3ccc(Cl)c(S(=O)(=O)N4CCOCC4)c3)cc2)C1 (stereo not given)	0.45	-1.2
COc1ccc(N2C(=O)CSC2c2ccncc2)cc1 (stereo not given)	1.1	-0.06
O=c1cc(O)c2ccccc2n1Cc1ccccc1Cl	0.55	5.4

Whole records, quoted from the list.
Listed for Cc1nn(-c2ccccc2)c2c1C(=O)N(c1ccccc1)C(=O)C(C)(C)C2 : KCNQ2 pot = 0.71; KCNQ2 pot baseline = 0.41
Listed for Nc1nc2nc(-c3ccc(OCc4ccccc4)cc3)cc(C(F)(F)F)n2n1 : KCNQ2 pot = 0.07; KCNQ2 pot baseline = 1.4
Listed for COc1ccccc1/C=C/C(=O)NCC(=O)N/N=C/c1cccnc1 : KCNQ2 pot = 0.58; KCNQ2 pot baseline = 0.6

(listing goes on)
SMILES	KCNQ2 pot	KCNQ2 pot baseline
O=c1cc(N2CCN(Cc3ccccc3)CC2)[nH]c(=O)n1Cc1ccc(F)cc1	0.7	-0.84
CN(CC(=O)O)c1ccc(S(=O)(=O)N2CCOCC2)cc1[N+](=O)[O-]	1.7	0.53
Cc1ccc(C(=O)Nc2nc(=O)n(C(=O)CC(C)C)s2)cc1	3.7	0.03
Clc1ccc(SCc2csc(N3CCOCC3)n2)cc1	0.62	-3.2
CN(C)C(/C=C/Nc1ccc(F)cc1)=C(C#N)C#N	0.47	0.65
O=C(CC(=O)N/N=C/c1ccc(O)cc1)N/N=C/c1ccc(O)cc1	0.25	0.14
CCOC(=O)C(NC(=O)CC)(Nc1ccccc1)C(F)(F)F (stereo not given)	0.01	0.06
CCc1nnc(NC(=O)CSc2nnc(-c3ccc(S(=O)(=O)N(CC)CC)cc3)n2CC)s1	0.07	0.01
CCc1c(C)c2ccc(OCC(=O)N(C)C)c(C)c2oc1=O	0.23	-1.5
Cc1ccccc1C(=O)N1CCN(c2ccc(NC(=O)c3ccco3)cc2)CC1	0.02	0.35
COc1cc(OC)c(S(=O)(=O)N2CCN(C(=O)c3ccccc3F)CC2)cc1NC(C)=O	1.1	0.88
COc1ccc(N2C(=O)CCC(C(=O)O)C2c2ccccc2OC)cc1 (stereo not given)	0.93	-0.21
COCCn1c(SCC(=O)NCc2ccc3c(c2)OCO3)nnc1-c1c[nH]c2ccccc12	0.21	-0.57
CC(=O)c1c(C)[nH]c(C(=O)Nc2cccnc2)c1C	0.08	-2.5
Cc1nn(C)c(C)c1S(=O)(=O)N1CCC(C(=O)NCC2COc3ccccc3O2)CC1 (stereo not given)	0.88	-0.01
Cc1ccc2ncnc(NCCCCCC(=O)O)c2c1	1.7	0.83
O=[N+]([O-])c1ccc(S(=O)(=O)N/N=C/c2ccco2)cc1	1.6	0.13
CCCC(=O)Nc1c2c(nn1-c1cccc(C)c1C)CS(=O)(=O)C2	1.2	0.5
Cc1c(OC(C)C(=O)NC2CC(C)(C)NC(C)(C)C2)ccc2c3c(c(=O)oc12)CCC3 (stereo not given)	1.5	1.2
Cc1cccc(NC(=S)N(C)C)c1C	0.91	-0.07
O=C(NCCc1ccccn1)c1ccc(COc2ccccc2)o1	0.04	0.64
Cc1nn2c(=O)cc(CSCC(=O)Nc3ccccc3Cl)nc2s1	0.25	2
CCn1c(=O)n(CC)c2cc(N)ccc21	1.3	3.4
CCCc1nnc(NC(=O)CCC(=O)N2CCCCC2)s1	0.22	-0.89
COc1ccccc1-n1c(=S)[nH]c2c(sc(=S)n2-c2ccccc2C)c1=O	0.01	-0.77
C/C(Cn1cnc([N+](=O)[O-])n1)=N\NC(=O)c1cccc(F)c1	0.5	0.06
CCCCCc1ccc(-c2cn(CN3C(=O)c4ccccc4C3=O)nn2)cc1	0.69	0.97
COC(C(=O)Nc1c(F)cccc1F)c1ccccc1 (stereo not given)	0.09	-0.07
CNC(=O)C1CCN(S(=O)(=O)c2c(C)noc2/C=C/N(C)C)CC1	0.47	1.5
O=C(Oc1ccccc1)n1c(=S)oc2ccccc21	3.3	-1.4

(list continues)
SMILES	KCNQ2 pot	KCNQ2 pot baseline
Cc1ccccc1N1CCN(C2CCCN(C(=O)c3csc(C(C)C)n3)C2)CC1 (stereo not given)	0.4	0.86
CC(C)Oc1ccc(C2CC(=O)N(c3cccc(/C=C/C(=O)O)c3)C2=O)cc1 (stereo not given)	1.4	0.53
CCCCC1CCC(C(=O)NCc2ccc3c(c2)OCO3)CC1 (stereo not given)	2.6	1.7
COc1cccc(CNC(=O)Nc2cccs2)c1	5.7*	0.43*
COc1ccccc1NC(=O)CSc1nnc(C)n1CC1CCCO1 (stereo not given)	0.49	4.9
N#Cc1cnn(-c2ccccc2)c1NC(=O)CN1CCOCC1	0.56	-0.14
O=C(CN1C(=O)NC2(CCCC2)C1=O)Nc1ccccc1N1CCCC1	0.91	0.78
CC1(c2ccccc2)NC(=O)N(CC(=O)Nc2ccc(S(=O)(=O)Nc3ncccn3)cc2)C1=O (stereo not given)	0.93	2.2
CC(C)CN1C(=O)c2ccc(C(=O)NCc3ccc4c(c3)OCO4)cc2C1=O	1.3	-0.08
N#Cc1c(-c2ccc(F)cc2)cc(-c2ccccc2)nc1SCC(=O)NCC(=O)O	1.2	-1.9
O=C(NCCN1CCNC1=O)C1CCC(=O)N(Cc2cccc(C(F)(F)F)c2)C1 (stereo not given)	0.85	-1.3
CCOC(=O)Cn1nnc(-c2ccc([N+](=O)[O-])cc2)n1	0.07	0.45
CC1CCN(C(=O)CSc2nnc(Cc3ccccc3)o2)CC1	0.02	-1.8
Cc1ccc(Cl)cc1N(Cc1ccc(C(=O)NCc2cccnc2)cc1)S(=O)(=O)c1ccccc1	1.1	0.84
CCc1cccc(NC(=O)C2CCN(S(=O)(=O)c3c(C)noc3C)CC2)c1	1.6	-1.2
COc1ccc(OC)c(NC(=O)CCS(=O)(=O)c2cc3c(cc2C)NC(=O)CO3)c1	0.13	-2.4
O=C(O)CSCC(=O)N1CCN(S(=O)(=O)c2cc(Cl)cc(Cl)c2)CC1	0.56	0.87
COc1cccc2cc(C(=O)N(Cc3cccs3)CC3CCCO3)c(=O)oc12 (stereo not given)	1.2	1.1
Cc1ccc(S(=O)(=O)CCC(=O)N(CCN2CCOCC2)c2nc3ccccc3s2)cc1	0.86	-0.04
CCOc1ccc(S(=O)(=O)Nc2ccc3c(c2)n(C)c(=O)n3C)cc1	0.38	-0.61
CC1=C(C(=O)NC2CCCCC2C)C2(CCC(C)CC2)OC1=O (stereo not given)	0.11	-2.9
CCOc1ccccc1CNCCOC	0.52	-0.58
CN(Cc1cn[nH]c1-c1ccc(-c2ccccc2)cc1)CC1CCOCC1	1.4	0.02
Fc1cccc(Cl)c1/C=N/Nc1c(Cl)cncc1Cl	1.3	-1.9
O=C(CSc1ccc(-c2ccco2)nn1)N1CCCCC1	0.02	0.4
CC1CCCN(c2ccc(C(=O)NCc3ccc4c(c3)OCO4)cc2[N+](=O)[O-])C1 (stereo not given)	8.3*	0.37*
C/C(CC(=O)Nc1ccc(F)cc1F)=N\NC(=O)C(=O)N1CCCCC1	0.09	-0.64
O=C(c1cccc(C(F)(F)F)c1)N1CCC2(CC1)NCCc1[nH]cnc12	0.66	1.3
CCc1cccc(CC)c1NC(=O)c1cccc(N)c1	0.02	0
CC1SCC(=O)N(CC(=O)Nc2ccc3c(c2)OCCO3)C1=O (stereo not given)	0.43	0.02

Continued.
Molecule | KCNQ2 pot | KCNQ2 pot baseline
COCCCNc1nc(-c2ccncc2)nc2ccccc12 | 2.8 | -2
CCN1C(=O)C(CC(=O)Nc2cc(C)ccc2C)SC1=Nc1ccc(S(N)(=O)=O)cc1 (stereo not given) | 1.3 | 1.6
COC(=O)CNC(=O)c1c(-c2c(Cl)cccc2Cl)noc1C | 0.16 | -1.3
NC(=O)c1oc2ccccc2c1NC(=O)C1CCCCC1 | 1.8 | -0.83
Cc1noc(C)c1COc1ncnc2ccccc12 | 0.91 | 0.94
O=[N+]([O-])c1ccccc1S(=O)(=O)Nc1cccnc1 | 0.47 | -0.77
O=C(Nc1ccc(NC(=O)c2ccco2)nc1)c1ccco1 | 1.1 | -3.5
CCOC(=O)/C(C#N)=C/c1cccc(C)c1 | 0.05 | -0.32
Cc1cc(C)cc(N(CCC#N)C(=O)CSc2nc3nc(C)cc(C)n3n2)c1 | 0.68 | -1.3
CC(C)(C)OC(=O)NCc1nc(N)n[nH]1 | 0.11 | -0.64

Arranged by value in KCNQ2 pot baseline (low to high): 5 of the compounds above
Molecule	KCNQ2 pot baseline
O=C(Nc1ccc(NC(=O)c2ccco2)nc1)c1ccco1	-3.5
Clc1ccc(SCc2csc(N3CCOCC3)n2)cc1	-3.2
COc1ccc(OC)c(NC(=O)CCS(=O)(=O)c2cc3c(cc2C)NC(=O)CO3)c1	-2.4
CCc1cccc(NC(=O)C2CCN(S(=O)(=O)c3c(C)noc3C)CC2)c1	-1.2
CCc1nnc(NC(=O)CSc2nnc(-c3ccc(S(=O)(=O)N(CC)CC)cc3)n2CC)s1	0.01

(continued)
Molecule | KCNQ2 pot | KCNQ2 pot baseline
CC(=O)Nc1cccc(Oc2ncnc3scc(-c4ccc(C(C)C)cc4)c23)c1 | 0.41 | 1.2
Cn1cc(C(=O)c2ccc(Cl)cc2Cl)cc1C(=O)N/N=C(\N)COc1cccc(C(F)(F)F)c1 | 0.93 | -2.8
COC(=O)c1cccc(NS(C)(=O)=O)c1C | 1.5 | -0.41
COc1cccc(C(=O)Nc2cc3c(cc2N2CCCC2)n(C)c(=O)n3C)c1 | 1 | -0.7
COc1cc(/C=N/NC(N)=S)cc(Br)c1OCc1ccccc1F | 1.4 | 0.86
CCOC(=O)C1=C(COC(=O)CCOc2cccc(C)c2)NC(=O)NC1C (stereo not given) | 2.1 | 1.4
CC1CCN(C(=O)Cn2nc(C(F)(F)F)c3c2CCCC3)CC1 | 4 | -3.1
CCOC(=O)CNC(=O)CSc1ccc2nnc(-c3ccc(F)cc3)n2n1 | 0.69 | -1.5
CCSc1nnc(NC(=O)CCc2ccccc2)s1 | 0.49 | -0.03
Cc1n[nH]c(C)c1CN(C)C(=O)c1cc(COc2ccc(F)c(F)c2)on1 | 0.65 | 2

The results go on:
Molecule | KCNQ2 pot | KCNQ2 pot baseline
CC1CN(c2ccc(Oc3ccccc3)cc2)c2nc3c(c(=O)[nH]c(=O)n3C)n2C1 (stereo not given) | 0.05 | -0.06
Cc1noc(C)c1S(=O)(=O)N1CCC(C(=O)NCCc2ccc(S(N)(=O)=O)cc2)CC1 | 0.21 | -0.25
NC(=O)[C@@H]1CC2(CC(c3cccc(NC(=O)COc4ccc(Cl)cc4)c3)=NO2)CN1C(=O)c1ccccc1 (stereo not given in full) | 0.7 | 0.58
O=C(Cn1c(C(F)(F)F)nc2ccccc21)Nc1ccccc1C(=O)O | 0.29 | 0.09
CC(C)(C)c1ccc(C(=O)NN2CCOCC2)cc1 | 1.6 | 0.71
